From PubChem BioAssay
nsP2pro inh = blocks chikungunya virus nsP2 protease peptide cleavage; Q8JUX6; FRET peptide cleavage, nsP2pro, fluorescence 1 h; Potency, µM (top dose mostly 24.9 µM), inactives show at the top dose activity change, negative = inhibition, most hits filed as inhibitors; hit rate 1.1% among 31,000; active means well fitted inhibition curve with a large enough effect; inconclusive means small, poorly fitted or top-dose-only effect; inactive means no such curve, though single readings can be large or run the other way; further: nearly all actives have a fitted effect of over 60% in size; a reference inhibitor and vehicle were the controls
Target sequence (Q8JUX6 whole entry, looked up): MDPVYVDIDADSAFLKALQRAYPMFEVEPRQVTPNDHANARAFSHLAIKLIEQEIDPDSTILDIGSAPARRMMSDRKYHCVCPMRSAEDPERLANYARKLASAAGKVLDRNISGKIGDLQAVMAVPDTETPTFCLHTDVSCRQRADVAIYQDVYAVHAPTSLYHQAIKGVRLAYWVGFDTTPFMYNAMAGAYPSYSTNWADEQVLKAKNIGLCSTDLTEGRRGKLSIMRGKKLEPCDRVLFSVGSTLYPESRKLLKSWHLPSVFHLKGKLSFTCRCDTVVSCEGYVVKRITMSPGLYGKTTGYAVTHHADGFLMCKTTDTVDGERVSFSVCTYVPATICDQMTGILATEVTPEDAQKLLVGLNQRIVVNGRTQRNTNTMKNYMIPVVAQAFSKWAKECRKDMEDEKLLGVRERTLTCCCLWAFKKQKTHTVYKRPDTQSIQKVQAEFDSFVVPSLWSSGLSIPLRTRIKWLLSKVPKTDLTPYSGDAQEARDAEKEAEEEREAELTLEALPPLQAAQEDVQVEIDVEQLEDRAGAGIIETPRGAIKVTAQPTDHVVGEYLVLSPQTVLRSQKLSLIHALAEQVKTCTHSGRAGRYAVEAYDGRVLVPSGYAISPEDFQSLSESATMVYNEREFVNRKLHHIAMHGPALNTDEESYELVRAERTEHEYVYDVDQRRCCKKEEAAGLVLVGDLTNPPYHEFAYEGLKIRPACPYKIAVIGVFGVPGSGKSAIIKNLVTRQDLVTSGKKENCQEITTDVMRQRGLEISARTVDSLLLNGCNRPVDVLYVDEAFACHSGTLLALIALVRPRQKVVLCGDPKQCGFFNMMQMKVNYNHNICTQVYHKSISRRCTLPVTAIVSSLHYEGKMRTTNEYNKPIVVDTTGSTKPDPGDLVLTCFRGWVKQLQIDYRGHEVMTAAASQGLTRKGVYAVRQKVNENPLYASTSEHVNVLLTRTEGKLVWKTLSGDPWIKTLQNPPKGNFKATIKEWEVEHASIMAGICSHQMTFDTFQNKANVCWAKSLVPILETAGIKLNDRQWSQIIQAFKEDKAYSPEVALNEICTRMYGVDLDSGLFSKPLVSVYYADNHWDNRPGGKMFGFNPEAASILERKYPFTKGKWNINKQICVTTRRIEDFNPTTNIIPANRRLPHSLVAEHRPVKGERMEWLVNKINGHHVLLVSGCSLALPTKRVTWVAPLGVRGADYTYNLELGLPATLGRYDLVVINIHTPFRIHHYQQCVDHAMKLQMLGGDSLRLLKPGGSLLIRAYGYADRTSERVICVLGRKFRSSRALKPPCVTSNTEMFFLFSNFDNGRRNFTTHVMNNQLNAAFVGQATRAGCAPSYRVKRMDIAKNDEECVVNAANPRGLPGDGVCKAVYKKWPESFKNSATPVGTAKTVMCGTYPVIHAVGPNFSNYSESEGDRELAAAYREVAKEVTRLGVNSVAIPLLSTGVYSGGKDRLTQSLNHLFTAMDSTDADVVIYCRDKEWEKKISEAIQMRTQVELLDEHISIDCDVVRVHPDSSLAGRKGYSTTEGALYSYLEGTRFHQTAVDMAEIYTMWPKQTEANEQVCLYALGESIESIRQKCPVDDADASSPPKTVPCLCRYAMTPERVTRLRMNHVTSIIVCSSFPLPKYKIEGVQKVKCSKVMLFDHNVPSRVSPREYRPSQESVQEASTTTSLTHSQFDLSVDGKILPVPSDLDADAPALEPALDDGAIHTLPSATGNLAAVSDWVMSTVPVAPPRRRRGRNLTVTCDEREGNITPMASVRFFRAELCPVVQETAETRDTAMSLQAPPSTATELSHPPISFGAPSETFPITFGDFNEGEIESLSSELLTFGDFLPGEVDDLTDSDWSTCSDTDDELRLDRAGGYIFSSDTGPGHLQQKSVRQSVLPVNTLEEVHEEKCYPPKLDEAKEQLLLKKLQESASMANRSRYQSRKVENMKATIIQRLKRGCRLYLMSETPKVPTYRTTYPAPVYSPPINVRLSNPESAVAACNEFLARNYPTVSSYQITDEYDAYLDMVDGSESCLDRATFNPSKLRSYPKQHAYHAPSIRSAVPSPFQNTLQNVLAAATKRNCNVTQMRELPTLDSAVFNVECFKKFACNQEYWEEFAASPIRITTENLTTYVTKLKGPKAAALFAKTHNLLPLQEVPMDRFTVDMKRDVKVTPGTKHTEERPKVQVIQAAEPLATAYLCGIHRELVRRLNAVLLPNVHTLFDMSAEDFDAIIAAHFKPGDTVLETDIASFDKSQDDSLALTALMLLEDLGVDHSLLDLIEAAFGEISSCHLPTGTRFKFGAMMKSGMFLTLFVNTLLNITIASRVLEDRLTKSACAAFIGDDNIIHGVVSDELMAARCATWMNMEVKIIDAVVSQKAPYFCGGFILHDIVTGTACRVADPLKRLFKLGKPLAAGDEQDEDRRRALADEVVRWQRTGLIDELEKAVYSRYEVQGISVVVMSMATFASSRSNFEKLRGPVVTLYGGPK
An asterisk follows results filed as active; & = joins results of further samples; [ ] = another dose, or the depositor's remark. On the % scale 0 is the no-effect control and ±100 the full control effect; potency means the concentration at half of the fitted maximal effect. These rows are one share of the data. The share of hits here may be higher or lower than overall.

What do the screens show for `O=C(NCc1nnc2n1C(C(=O)N1CCN(c3ncccn3)CC1)CC2)c1cccnc1` (centres undefined)?
nsP2pro inh: 7%

How did O=C1NC2(Cc3ccccc31)CN(C(=O)c1ccccc1Cl)C2 do in these assays?
nsP2pro inh: -4%

Results for c1ccc(-n2cc(-c3nnc4n3CCCCC4)c3ccccc32)cc1 ?
nsP2pro inh: inactive

Results for CC[C@]12C=CCN3CC[C@@]4(c5cc([C@@]6(C(=O)OC)CC7C[C@@H](C(C)(F)F)CN(Cc8c6[nH]c6ccccc86)C7)c(OC)cc5N(C)[C@H]4[C@@](O)(C(=O)OC)[C@@H]1OC(C)=O)[C@@H]32 (some centres undefined) ?
nsP2pro inh: 1%

Results for CCOC(=O)C1CCCN(C(=O)C2CC(c3ccc(CC)cc3)CN(C(C)=O)C2)C1 (centres undefined) ?
nsP2pro inh: -7%

How did CN(Cc1cnn(-c2ccccc2)c1)Cc1cc2ccccc2[nH]c1=O do in these assays?
nsP2pro inh: inactive

How did CCOc1ccc(-n2cc(-c3ccccc3)c3c(N4CCN(c5ccccc5OC)CC4)ncnc32)cc1 do in these assays?
nsP2pro inh: -21%

How did O=C1N(Cc2ccccc2)c2ccc(Cl)cc2C1(O)c1c[nH]c2ccccc12 (centres undefined) do in these assays?
nsP2pro inh: -3%

How did COc1ccc(S(=O)(=O)Nc2ccc3n(c2=O)C[C@H]2C[C@@H]3CN(C(=O)c3ccccn3)C2)cc1 do in these assays?
nsP2pro inh: -29%

What do the screens show for `C=CCC1(C(=O)O)CCCN(C(=O)Cc2c[nH]c(=O)n(C)c2=O)C1` (centres undefined)?
nsP2pro inh: inactive

How did COc1ccc(CCNC(=O)Cn2c(-c3ccc(F)cc3)cc(C(C)=O)c2C)cc1OC do in these assays?
nsP2pro inh: -17%

What do the screens show for `CC(=O)O[C@@H]1[C@@H](O)[C@H](C)O[C@@H](O[C@H]2[C@@H]3C=CO[C@@H](O[C@@H]4O[C@H](CO)[C@@H](O)[C@H](O)[C@H]4OC(C)=O)[C@@H]3[C@@]3(CO)O[C@@H]23)[C@@H]1OC(=O)/C=C/c1ccc(O)cc1`?
nsP2pro inh: 12%[10 µM]

In the list so far, four contain an NH in an aromatic ring:
Results for CC[C@]12C=CCN3CC[C@@]4(c5cc([C@@]6(C(=O)OC)CC7C[C@@H](C(C)(F)F)CN(Cc8c6[nH]c6ccccc86)C7)c(OC)cc5N(C)[C@H]4[C@@](O)(C(=O)OC)[C@@H]1OC(C)=O)[C@@H]32 (some centres undefined) ?
nsP2pro inh: 1%

How did CN(Cc1cnn(-c2ccccc2)c1)Cc1cc2ccccc2[nH]c1=O do in these assays?
nsP2pro inh: inactive

How did O=C1N(Cc2ccccc2)c2ccc(Cl)cc2C1(O)c1c[nH]c2ccccc12 (centres undefined) do in these assays?
nsP2pro inh: -3%

What do the screens show for `C=CCC1(C(=O)O)CCCN(C(=O)Cc2c[nH]c(=O)n(C)c2=O)C1` (centres undefined)?
nsP2pro inh: inactive

Carrying on:
Results for O=C1c2ccccc2NC(c2ccc(-c3cccs3)o2)N1O (centres undefined) ?
nsP2pro inh: 5.6µM*

What do the screens show for `O=C(CCn1ccn2nc3c(c2c1=O)CCCC3)Nc1ccc(F)cc1F`?
nsP2pro inh: -1%

How did CCCCCC[C@H]1C(=O)O[C@H](C)[C@H](NC(=O)c2cccc(NC=O)c2O)C(=O)O[C@@H](C)[C@@H]1OC(=O)CC(C)C do in these assays?
nsP2pro inh: 65%&1%[activator]

Results for COc1cccc(-c2cn3c(n2)N(C(=O)c2cnccn2)CCC3)c1 ?
nsP2pro inh: 5%

Results for CCN1CCN(CCCNC(=O)Cn2nc(C)n3c(cc4cc(C)ccc43)c2=O)CC1 ?
nsP2pro inh: -13%

What do the screens show for `Cc1noc(C)c1-c1ccc2c(n1)CN(Cc1nc3ccccc3s1)C(=O)CO2`?
nsP2pro inh: inactive

Results for CCc1ccc(N2CCn3c2nc2c3c(=O)n(C/C=C/c3ccccc3)c(=O)n2C)cc1 ?
nsP2pro inh: -12%

Results for Oc1ccc(COc2cccc3ccccc23)c2cccnc12 ?
nsP2pro inh: inactive

How did O=S(=O)(NCc1ccccn1)c1ccc(Br)c2ccccc12 do in these assays?
nsP2pro inh: 32%

How did COc1ccc(C(=O)n2nc(-c3ccc(Cl)cc3)nc2NCc2ccco2)cc1 do in these assays?
nsP2pro inh: -14%

How did O=c1cc(CO)occ1O do in these assays?
nsP2pro inh: inconclusive

What do the screens show for `O=C(NCCS(=O)(=O)N1CCN(c2cccc(Cl)c2)CC1)C(c1ccccc1)c1ccccc1`?
nsP2pro inh: -8%

What do the screens show for `C=CCc1cc(F)c(S(=O)(=O)N2CCN(S(=O)(=O)c3ccc4c(c3)OCCO4)CC2)cc1F`?
nsP2pro inh: inactive

What do the screens show for `CCc1ccccc1NC(=O)c1sc2nc3n(c(=O)c2c1C)CCC3`?
nsP2pro inh: -7%

How did Oc1ccc(COC2CCCC2)c2cccnc12 do in these assays?
nsP2pro inh: 4%

Results for CC(C)n1nc(-c2cc3cc(O)ccc3[nH]2)c2c(N)ncnc21 ?
nsP2pro inh: inconclusive

Results for c1cncc(CNc2ncnc3ccc(-c4ccc5c(c4)OCCO5)cc23)c1 ?
nsP2pro inh: inactive

What do the screens show for `COc1cccc(CNCCSc2nnnn2C)c1OCc1ccccc1Cl`?
nsP2pro inh: -29%

How did COc1ccc(-c2noc(N(c3cccc(Cl)c3)c3nc(-c4ccc(OC)c(OC)c4)no3)n2)cc1OC do in these assays?
nsP2pro inh: -8%

What do the screens show for `COc1cc(C(=O)Nc2nc(-c3ccccc3)cs2)ccc1NS(=O)(=O)c1ccc(C)cc1`?
nsP2pro inh: -4%

How did CCC(Oc1ccccc1)C(=O)Nc1ccccc1OCc1cc(=O)n2ccccc2n1 (centres undefined) do in these assays?
nsP2pro inh: -13%

What do the screens show for `CC(=O)Nc1ccc(S(=O)(=O)NCc2ccc(C(=O)NCc3ccc(Cl)cc3)cc2)cc1`?
nsP2pro inh: 130%[activator]

How did C/C(=N\N=C(N)N)c1ccc(NC(=O)Nc2ccc(/C(C)=N/N=C(N)N)cc2)cc1 do in these assays?
nsP2pro inh: 8.8µM*

What do the screens show for `O=C(O)c1ccc(-c2ccc3ncnc(NCc4cccs4)c3c2)o1`?
nsP2pro inh: inactive

Results for O=C(CC1CCN(C(=O)C2CCCCC2)C1)NCc1ccccc1 (centres undefined) ?
nsP2pro inh: 4%

How did CCCC1(CCC)CCC2(CCN(CCCN(CC)CC)C2)CC1 do in these assays?
nsP2pro inh: 91%[activator]

How did O=C(NC1CCCCC1)N1C2CCC1CN(c1ccc(C(F)(F)F)cc1)C2 do in these assays?
nsP2pro inh: -27%

How did c1ccc(-c2cnn3cc(-c4ccc(OCCN5CCOCC5)cc4)cnc23)cc1 do in these assays?
nsP2pro inh: -4%

Results for Cc1nc2c(-c3ccccc3)c(C)nn2c(C)c1CCC(=O)NCCc1ccccc1 ?
nsP2pro inh: -11%

How did CCOc1ccc(NC(=O)CCC(=O)N2CCSc3ccccc32)cc1 do in these assays?
nsP2pro inh: -17%

Results for CCN(Cc1cccc2nonc12)CC1CCCN(CCc2cccc(OC)c2)C1 (centres undefined) ?
nsP2pro inh: inactive

Results for NC1=NCC2c3ccccc3Cc3ccccc3N12 (centres undefined) ?
nsP2pro inh: -6%

What do the screens show for `CC(C)[C@H](NC(=O)c1nn(Cc2ccc(F)cc2)c2ccccc12)C(N)=O`?
nsP2pro inh: -7%

How did O=C(/C=C/c1ccc(O)cc1)c1ccc(O)cc1O do in these assays?
nsP2pro inh: 1%

Results for O=C(Cc1ccccc1)N1CCCC2(CC(c3cccc(C(F)(F)F)c3)=NO2)C1 (centres undefined) ?
nsP2pro inh: -4%

How did Cc1cc2c(s1)c1cnn(Cc3ccc(F)c(F)c3F)c(=O)c1n2C do in these assays?
nsP2pro inh: -3%

How did CN1C(=O)CO[C@H]2CN(Cc3c[nH]c4ccccc34)C[C@H]21 do in these assays?
nsP2pro inh: -21%[39.2 µM]

What do the screens show for `C=CCCC(CN1CCSCC1)Oc1ncc(CC)cn1` (centres undefined)?
nsP2pro inh: -2%

What do the screens show for `Cn1cc(CN2CCN3C(=O)N(C4CCCCC4)C[C@H]3C2)cn1`?
nsP2pro inh: 3%[39.2 µM]

Results for O=C(Nc1ccc(-c2nc3ccccc3[nH]2)cc1)c1ccc(C(F)(F)F)cc1 ?
nsP2pro inh: -3%

Results for CCOC(=O)N1CCN(Cc2nc3cc(NC(=O)c4cccc(C)c4)ccc3n2C(C)C)CC1 ?
nsP2pro inh: 2%

Results for Cc1ccccc1NC(=O)c1ccc(N(Cc2ccccc2)S(C)(=O)=O)cc1 ?
nsP2pro inh: -12%

What do the screens show for `CC(C)N1CCN(c2ccc(OC[C@@H]3CO[C@@](Cn4cncn4)(c4ccc(Cl)cc4Cl)O3)cc2)CC1`?
nsP2pro inh: 36%[activator]

What do the screens show for `COc1ccc(CCNC(=O)c2cc3c(=O)oc4ccc(C)cc4c3s2)cc1OC`?
nsP2pro inh: -13%

Results for COc1cc(C2OCC3C(c4ccc(OC5OC(CO)C(O)C(O)C5O)c(OC)c4)OCC23)ccc1O (centres undefined) ?
nsP2pro inh: -16%[10 µM]

How did CCOC(=O)c1ccc(N2CCN(c3cccc(Cl)c3)CC2)c(NC(=O)Nc2ccc(Cl)cc2)c1 do in these assays?
nsP2pro inh: 7%

What do the screens show for `Cc1ccc2oc(-c3ccc(C)c(NC(=O)c4ccc(-c5ccccc5[N+](=O)[O-])o4)c3)nc2c1`?
nsP2pro inh: -21%

Results for O=C1NCCOCCN(S(=O)(=O)c2ccc3c(c2)CCC3)[C@@H]2CCCC[C@H]12 ?
nsP2pro inh: -1%

What do the screens show for `COc1ccccc1C(=O)N(C)Cc1cccn1C`?
nsP2pro inh: -20%[39.2 µM]

Results for O=C(COc1ccccc1[N+](=O)[O-])N(Cc1ccco1)c1ccccn1 ?
nsP2pro inh: -29%

What do the screens show for `Cc1ccccc1C(=O)N1CCc2cc(-c3nc(NC(=O)c4ccc5c(c4)OCO5)sc3C)ccc21`?
nsP2pro inh: 0%

How did CCCn1c(C)nc2c(N3CCC(N4CCN(C)CC4)CC3)nc(C)nc21 do in these assays?
nsP2pro inh: -2%

How did COc1ccc(CNCCC(c2ccccc2)c2ccc3c(c2)OCO3)cc1 (centres undefined) do in these assays?
nsP2pro inh: -2%

How did Cc1nc(-c2cccnc2)ncc1C(=O)N1CCC2(CC1)CC(=O)N(C)C2 do in these assays?
nsP2pro inh: 0%

Results for C[C@@]1(CO)[C@H](O)CC[C@@]2(C)[C@H]1CC[C@H]1C[C@@H]3C[C@@]12CC[C@]3(O)CO ?
nsP2pro inh: 0%

Results for COc1ccc(CNC(=O)CSCc2cnn(-c3ccccc3)c2-n2cccc2)cc1OC ?
nsP2pro inh: -17%

How did CCOC(=O)c1c(C)oc2nc(C)nc(NCC3CCN(Cc4ccccc4C)CC3)c12 do in these assays?
nsP2pro inh: -16%

How did O=C(Nc1nnc(-c2ccncc2)s1)Nc1ccc(Cl)cc1Cl do in these assays?
nsP2pro inh: inactive

How did COc1ccccc1C(=O)Nc1nc2nc(-c3ccccc3)cc(=O)n2[nH]1 do in these assays?
nsP2pro inh: 30%[activator]

What do the screens show for `O=C(c1cc(-c2ccsc2)c2nncn2n1)N1CCN(Cc2ccccc2)CC1`?
nsP2pro inh: -1%

Already shown: entries from further up.
How did O=C(Nc1nnc(-c2ccncc2)s1)Nc1ccc(Cl)cc1Cl do in these assays?
nsP2pro inh: inactive

How did COc1ccccc1C(=O)Nc1nc2nc(-c3ccccc3)cc(=O)n2[nH]1 do in these assays?
nsP2pro inh: 30%[activator]

What do the screens show for `O=C(c1cc(-c2ccsc2)c2nncn2n1)N1CCN(Cc2ccccc2)CC1`?
nsP2pro inh: -1%

(continued)
How did Cn1c(=O)[nH]c(=O)c2c1nc1n2CCN1c1ccccc1 do in these assays?
nsP2pro inh: 7%

What do the screens show for `Cc1oc(-c2cccc(Cl)c2)nc1CN1CCCC(C(=O)N2CCN(c3ccc(F)cc3)CC2)C1` (centres undefined)?
nsP2pro inh: -7%

What do the screens show for `O=C(OCC#CCSc1nnc(-c2cccc3ccccc23)o1)c1ccco1`?
nsP2pro inh: -22%

How did CCOc1ccc(N2CC(NC(=O)C3CCCC3)CC2=O)cc1 (centres undefined) do in these assays?
nsP2pro inh: -2%

Results for Cc1cc(-c2ccccc2)nc2c(C(=O)Nc3ccc(Cl)c(Cl)c3)cnn12 ?
nsP2pro inh: -5%

How did Cc1ccc(OCCn2c(CCNC(=O)c3cccc4ccccc34)nc3ccccc32)cc1 do in these assays?
nsP2pro inh: -21%

Results for CC(=O)Nc1ccc(S(=O)(=O)NCc2cccn2Cc2cccc(C)c2)cc1 ?
nsP2pro inh: 0%

What do the screens show for `CC(C)(C)OC(=O)N1CCC(c2c(C(=O)NCCCN3CCc4ccccc4C3)cnn2-c2ccccc2)CC1`?
nsP2pro inh: 3%

How did Cc1ccc(-c2cc(-c3ccncc3)c3cncn3c2)cn1 do in these assays?
nsP2pro inh: inactive

What do the screens show for `Cn1c(C(=O)Nc2ccc3c(c2)OCO3)cc2c1CCN(Cc1cccc(F)c1)C2`?
nsP2pro inh: -9%

How did CCOC(=O)CC(NS(=O)(=O)c1cc(-c2cc(C)no2)ccc1C)c1ccc(C)cc1 (centres undefined) do in these assays?
nsP2pro inh: -10%

What do the screens show for `Cc1ccc2c(c1)NC(=O)C(CC(=O)Nc1ccccc1Cl)O2` (centres undefined)?
nsP2pro inh: -11%

What do the screens show for `Cc1cc(C)cc(Oc2coc3cc(OCC(=O)NC4CCCCC4)ccc3c2=O)c1`?
nsP2pro inh: -15%

How did COC(=O)c1ccc(CSc2c(C(C)C)cnc3c2c(=O)n(C)c(=O)n3C)cc1 do in these assays?
nsP2pro inh: -15%

What do the screens show for `O=C(Cc1ccccc1)Nc1ncnc2c1C(c1ccccc1)c1c(ccc3ccccc13)O2` (centres undefined)?
nsP2pro inh: -22%
